# High-throughput results: PubChem BioAssay, Center for Chemical Genomics, University of Michigan
# TAR Tat displ = HIV-1 TAR-Tat binding disruption; HIV-1 TAR RNA, Tat peptide displacement FRET; active compounds read high; z-score (concentration not given with the values); 100,000 tested, 0.6% active; AID 1259389;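 also: score is relative to mean and SD of negative controls; some compounds called inactive have numbers as strong as hits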
# CDC25B CDK2 inh = human CDC25B-CDK2/CyclinA binding inhibition | z-score (no concentration beside the values) | HTRF CDC25B-CDK2/CyclinA binding, anti-His/anti-Flag; active compounds read high | P30305+P24941 | 94,000 tested, 0.72% active;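 also: score is relative to mean and SD of negative controls; strong numbers were not always called active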
# * = called active by the depositor; . = no result given; & = joins results of further samples.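 The calls were made as follows: active = z-score from 3 up in half or more of its runs; inactive = the rest.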 Rows were taken by chance (roughly 0.89% active in at least one column).
no.	smiles	TAR Tat displ	CDC25B CDK2 inh
1	CC1CN(CC(=O)N2CCCCC2)c2ccccc2S1 (stereo unspecified)	1	.
2	OC(CSc1cccs1)CN1CCN(C(c2ccccc2)c2ccccc2)CC1 (stereo unspecified)	.	4.9
3	Cc1ccc(C(C)C)c(OCc2nc3ccccc3n2C)c1	1.3	-1.1
4	Cn1c(=O)oc2cc(S(=O)(=O)N3CCC(c4ccncc4)CC3)ccc21	0.77	.
5	CCN1CCN(C(=O)C2CC3CCCN3C23C(=O)Nc2ccccc23)CC1 (stereo unspecified)	-1.3	.
6	CCN(CC)S(=O)(=O)c1ccc2c(c1)N(CCCC(=O)N1CCOCC1)C(=O)C1CCCN21 (stereo unspecified)	0.8	0.58
7	Cc1ccc(CNC(=O)c2cccn2-c2nnc(N3CCCC3)s2)o1	0.85	.
8	COC(=O)C1C(=O)C2=C(CC1C)NC(C)=C(C(=O)OC1CCCC1)C2c1cccc(O)c1 (stereo unspecified)	-1.2	0.58
9	O=C(c1ccc(CS(=O)c2ccccc2)o1)N1CCN(c2ccccc2F)CC1 (stereo unspecified)	2	-0.05
10	CCOC(=O)c1cc(-n2c(C)ccc2C)ccc1N1CCCCC1	.	-2.2
11	CCOC(=O)c1c(C)oc2nc(C)nc(NC(C)c3ccccc3)c12 (stereo unspecified)	0.33	.
12	O=C(NCc1cccs1)C1CCN(S(=O)(=O)c2ccc3[nH]c(=O)ccc3c2)CC1	2.5	.

# (listing goes on)
no.	smiles	TAR Tat displ	CDC25B CDK2 inh
13	Cc1ccc(NC(=O)CSc2nnc(C)n3c2cc2occc23)cc1F	1.8	.
14	CCCCNC(=O)C1CCCN(c2ncnc3onc(C)c23)C1 (stereo unspecified)	2	.
15	Cc1nnc(NC(=O)CSc2ncnc3c2oc2ccccc23)s1	.	-0.85
16	Cc1c(CN(C)C(=O)c2cc3nc4c(c(C(F)(F)F)n3n2)CCc2ccccc2-4)cnn1C	.	-1.5
17	Cc1ccccc1OCc1cc(=O)n2ccsc2n1	-0.15	-0.59
18	CCCSc1nn(C)c2nc3c(c(=O)n12)C(C)(C)Cc1ccccc1-3	-0.26	-2
19	O=C1NC(=Nc2ccccc2)SC1(CO)CO	1.6	-0.15
20	CCC(Sc1nnc(C)n2c1cc1occc12)C(=O)Nc1cc(C)ccc1C (stereo unspecified)	-3.3	.
21	OCCSc1nnc(Cc2ccccc2)n1-c1ccccc1	1.1	0.62
22	CCOC(=O)C1CCCN(S(=O)(=O)c2cccc3nsnc23)C1 (stereo unspecified)	.	-1.7
23	CC1=NC(=S)C(=P(c2ccccc2)(c2ccccc2)c2ccccc2)C(=O)N1	.	-2.4
24	COCCCNC(=O)NCc1cccn1Cc1c(C)cc(C)cc1C	0.25	.

# Next part.
no.	smiles	TAR Tat displ	CDC25B CDK2 inh
25	CCCOC(=O)C1=C(C)NC2=C(C(=O)C(C(=O)OC)C(C)C2)C1c1cccs1 (stereo unspecified)	0.71	-0.08
26	Cn1c(-c2ccc3c(c2)OCO3)cnc1NCc1cc(Br)ccc1F	-1.5	-1.1
27	O=C1c2oc3ccccc3c(=O)c2C(c2ccccc2F)N1Cc1ccc2c(c1)OCO2 (stereo unspecified)	-2.2	-0.69
28	Cc1nc(N)c(C#N)c(-c2cccs2)c1C	-0.19	-0.8
29	Cc1c(C(c2ccccc2)c2c(C)n(C)n(-c3ccccc3)c2=O)c(=O)n(-c2ccccc2)n1C	0.54	-1.8
30	Cc1cccc(C)c1Nc1c(-c2ccc(N3CCOCC3)cc2)nc2cnccn12	-5.1	0.96
31	O=C(O)CSc1nc2ccccc2c(=O)[nH]1	1.3	-2.4&0.35
32	Cc1nn2c(=O)cc(CSc3nnc(-c4ccccc4C)o3)nc2s1	0.42	-0.66
33	CCOc1ccccc1C1C(C(=O)OCCSCC)=C(C)NC2=C1C(=O)CCC2 (stereo unspecified)	1.4	-2.3
34	Fc1ccccc1-n1ncc2c1ncn1nc(-c3ccccc3)nc21	1.9	-1.7
35	CCOc1ccc(N2S(=O)(=O)c3ccccc3S2(=O)=O)cc1	.	-2
36	Cc1nn(C)c(C)c1CNC(=O)c1cc2n(n1)C(C(F)(F)F)CC(c1ccc3c(c1)OCO3)N2 (stereo unspecified)	0.29	-0.04

# Next part.
no.	smiles	TAR Tat displ	CDC25B CDK2 inh
37	CCc1ccc(-c2nc(CSCC(=O)NCc3ccc4c(c3)OCO4)c(C)o2)cc1	.	0.26
38	O=c1[nH]cccc1-c1nc(-c2cccc(F)c2)no1	0.86	-1.6
39	CC1c2cccn2CCN1C(=O)NC1CCCCC1 (stereo unspecified)	-3.5	.
40	O=C(Nc1cccc2nsnc12)c1cccc(-n2cnnc2)n1	14*	.
41	COc1ccc(N2C(=O)C3ON(c4ccccc4)C(c4ccccc4O)C3C2=O)cc1 (stereo unspecified)	2.5	-1.1
42	COC(=O)c1c(-c2cccs2)csc1NC(=O)COc1ccc(Br)cc1	-2	-1.6
43	O=C(c1cccs1)N1CCN(C2c3ccccc3-c3ccccc32)CC1	0.51	.
44	CCOC(=O)c1c(NC(=O)C2C3CCC(O3)C2C(=O)O)sc2c1CCC(CC)C2 (stereo unspecified)	-0.22	-0.09
45	COc1ccc(S(=O)(=O)NNC(=O)c2cc(C)n(C(C)(C)C)n2)cc1OC	.	-0.68
46	COC(=O)c1c(NC(=O)c2ccc3c(c2)OCCO3)sc2c1CCC2	1.1	.
47	COc1ccc(NC(=O)Nc2cccc(Cl)c2Cl)c(OC)n1	.	-1.7
48	CCc1ccc(OCc2cc(=O)n3oc(C)cc3n2)cc1	0.36	-0.22

# (further entries)
no.	smiles	TAR Tat displ	CDC25B CDK2 inh
49	Cc1cc(C)cc(NC(=O)NCc2c(-n3cccc3)sc3c2CCN(C)C3)c1	-0.56	.
50	O=S(=O)(NCCSCc1c(F)cccc1Cl)c1cccc(C(F)(F)F)c1	.	0.69
51	CCCc1cc(=O)[nH]c(SCC(N)=O)n1	-0.12	0.49
52	COC(=O)c1ccc(CNC(C)(C)C)o1	-0.28	-0.74
53	COc1ccc(C(=O)OC2CC3CC(C2)N3)cc1OC (stereo unspecified)	-0.01	.
54	CC(=O)N1CCc2cc(S(=O)(=O)NC(CC(C)C)C(=O)N3CCCC3)ccc21 (stereo unspecified)	0.45	1.6
55	O=C(Cn1c(=O)c2cccn2c2cccnc21)NCCc1c[nH]c2ccccc12	-0.95	.
56	O=S(=O)(NC1CCN(Cc2ccccc2)CC1)c1cc(-c2noc(C3CC3)n2)cs1	1.3	.
57	CCCCn1cc(S(=O)(=O)c2ccc(Cl)cc2)c(=O)c2cc(F)c(N3CCN(C)CC3)cc21	0.14	.
58	S=c1[nH]nc(COc2ccc(Cl)cc2)n1-c1ccccc1	.	0.67
59	CSC1=NCCCN1C(=O)c1nn(-c2ccccc2)nc1C	.	-0.3
60	CC(Nc1nc2nonc2nc1NC(C)c1ccccc1)c1ccccc1 (stereo unspecified)	0.82	0.78

# (further entries)
no.	smiles	TAR Tat displ	CDC25B CDK2 inh
61	CC(C)OC(=O)C1C2C=CC3(CN(c4cccc(Cl)c4)C(=O)C13)O2 (stereo unspecified)	-0.09	-1.5
62	CC1CCCCN1Cc1cc(Cl)c2cccnc2c1O (stereo unspecified)	.	-0.86
63	Cc1cn2c(=O)cc(COc3ccc(Cl)cc3)nc2s1	1.1	-3.5
64	CN(CCO)c1cc(Br)c2noc3c2c1C(=O)c1ccccc1-3	-4	-1.6
65	CC1CSc2ccc(S(=O)(=O)NCCSCc3ccco3)cc2NC1=O (stereo unspecified)	1.1	.
66	CCC(=O)Nc1nnc(SCc2cc(=O)n3nc(C4CCCCC4)sc3n2)s1	0.53	.
67	CN(C)CCCN(C(=O)COc1ccccc1)c1nc2ccc(F)cc2s1	-0.31	.
68	CCCCC(=O)N(c1ccc(C(C)C)cc1)C1C=CS(=O)(=O)C1 (stereo unspecified)	0.24	-0.23
69	Cc1ccc2c(c1)N(CCC(=O)NCCN1CCOCC1)C(=O)CO2	.	-0.95
70	Cc1cc(S(=O)(=O)Nc2cccc(N3CCCS3(=O)=O)c2)ccc1F	-0.23	.
71	Fc1ccc(-c2noc3ncnc(Nc4cccc(Cl)c4)c23)cc1	-0.52	.
72	CCCCN(C(=O)c1cc2c(s1)-c1ccccc1OC2)C1CCN(C(C)=O)CC1	-0.02	-1.6

# Continuation:
no.	smiles	TAR Tat displ	CDC25B CDK2 inh
73	O=C(Cn1ncn2nc(-c3cccs3)cc2c1=O)N1CCC(N2CCCCC2)CC1	-0.48	0.54
74	CC1=C(c2ccc(Cl)cc2)S(=O)(=O)NC1=NCCCc1ccccc1	0.9	-4.3
75	Cc1c(NC(=O)Nc2ccc(S(N)(=O)=O)cc2)sc(=S)n1C	1.6	0.06
76	Cc1ccc(-c2cn3cccc(C)c3n2)cc1NS(C)(=O)=O	0.69	0.44
77	c1ccc(CSc2nnc3sc4ccccc4n23)cc1	.	-1.5
78	O=C(Oc1ccc2c(=O)c(Oc3ccccc3Br)coc2c1)N1CCOCC1	1.8	-1.6
79	Brc1cn[nH]c1/C=N/Nc1nc(-c2ccccc2)cs1	.	-1.3
80	CSC(=NS(=O)(=O)c1cc(Cl)sc1Cl)SC	.	-3.7
81	Cc1ccccc1-c1nc(SCC(=O)NC(C)C)n2[nH]c(=O)cc2n1	0.65	.
82	O=C(NCCC1=CCCCC1)C1c2ccccc2Oc2ccccc21	0.66	-0.68
83	COCCNc1nc(Nc2cccc(Cl)c2)c2cnn(C)c2n1	0.86	.
84	O=C(Cn1ncc2c([nH]c3ccccc32)c1=O)N1CCN(Cc2ccc3c(c2)OCO3)CC1	0.8	.

# (cont.)
no.	smiles	TAR Tat displ	CDC25B CDK2 inh
85	Cn1c(=S)oc2cc(S(=O)(=O)N3CCOCC3)ccc21	0.57	.
86	O=C(CSc1ccc2nc(-c3ccccc3)cn2n1)Nc1ccc2c(c1)OCCO2	-0.41	.
87	O=C(Cn1ncn2c(cc3cc(F)ccc32)c1=O)NCCc1cccs1	-0.03	-0.16
88	CC(C)N(C(=O)Cn1cc(SCC(=O)NC2CCCC2)c2ccccc21)C(C)C	-0.2	.
89	O=C(Nc1ccc2c(c1)OCCO2)NC1COc2ccccc2C1 (stereo unspecified)	1.1	.
90	Cc1ccccc1/C=C/c1nn2c(-c3cccnc3)nnc2s1	0.67	1
91	COc1ccc(OCC(=O)Nc2c(C(=O)N3CCOCC3)oc3ccccc23)cc1	0.91	.
92	Cc1cc(NC(=O)CSc2nc3ccccc3[nH]2)n(-c2ccccc2)n1	.	-1.7
93	Cc1csc2sc(COC(=O)Nc3ccccc3)c(C)c12	.	-1.9
94	COc1ccc2c(c1)CCc1c-2nc2ccccc2c1N1CCOCC1	.	-0.98
95	O=C1CC(NCC2CCCO2)C(=O)N1c1ccccc1 (stereo unspecified)	-0.08	-1.5
96	CN(CC1COc2ccccc2O1)S(=O)(=O)c1ccc2c(c1)CCCC(=O)N2 (stereo unspecified)	0.63	.

# Carrying on.
no.	smiles	TAR Tat displ	CDC25B CDK2 inh
97	Clc1ccccc1-n1cc(-c2ccccc2)c2c(NC3CC3)ncnc21	1.1	-1.8
98	CCc1nnc2c3ccccc3nc(Nc3ccc4c(c3)sc(=O)n4C)n12	2.6	.
99	CCCC1c2cccn2CCN1C(=O)Nc1ccccc1 (stereo unspecified)	-0.45	.
100	Cc1sc(-n2cccc2CNCc2ccc3c(c2)OCO3)c(C(=O)O)c1C	0.38	.
101	N#C/C(NCc1cccs1)=C(\C#N)NCc1c(F)cccc1Cl	.	0.58
102	Cc1ncc(-c2ccc(C)c(S(=O)(=O)Nc3cccc(Cl)c3)c2)o1	0.57	.
103	Cc1cc(C)c(S(=O)(=O)Nc2ccc(F)cc2F)c(C)c1	-0.13	-2.3
104	Cc1ccc(S(=O)(=O)Nc2nc3cc(C)c(C)cc3s2)cc1	1.5	-2
105	CCOC(=O)CSc1nnc(CSc2nc(C)cc(C)n2)n1-c1ccc(F)cc1	-0.44	-0.33
106	O=C(CSc1nc2c(cnn2-c2ccc(Cl)cc2)c(=O)[nH]1)Nc1nccs1	2	.
107	Cc1cc(-n2c(=S)[nH]c3sc(C)c(C)c3c2=O)n(-c2ccccc2)n1	.	-3
108	CCCOC(=O)c1cccc(NC(=O)COc2cc(C)cc(C)c2)c1	.	-1.9

# The results go on.
no.	smiles	TAR Tat displ	CDC25B CDK2 inh
109	CCOC(=O)c1cnc2c(C)cc(C)cc2c1Nc1ccc(N(C)C)cc1	-0.17	-2
110	N#Cc1c(N)nc2c(c1-c1ccncc1)CCCC2	.	-0.14
111	COc1ccc(C2=NN(S(=O)(=O)c3ccc(C)cc3)C(c3cccc(OC)c3OC)C2)cc1OC (stereo unspecified)	-7.9	-2
112	O=C(CCc1nnc2ccc(NCc3ccc4c(c3)OCO4)nn12)NCC1CCCO1 (stereo unspecified)	1.6	.
113	CCc1nc2ccccc2n1CCCOc1ccc(Cl)cc1	0.65	-0.36
114	CCOC(=O)NC(=S)Nc1ccsc1C(=O)OC	.	-0.45
115	O=C(NCc1ccco1)C(=O)NCC(c1ccco1)S(=O)(=O)c1ccc(Cl)cc1 (stereo unspecified)	0.97	.
116	O=C1COc2cc(S(=O)(=O)N3CCN(c4ccccn4)CC3)c(Cl)cc2N1	-1.1	.
117	CCC1(C)Cc2c(sc3c2c2ncnn2c2nnc(SC)n32)CO1 (stereo unspecified)	2.2	-2
